Autofluor counter – compound fluorescence in toxin protease inhibitor counterscreen; compound autofluorescence counterscreen, microsphere flow cytometry; stronger effect = higher value; fluorescence intensity (test concentration not listed); 3.1% of 360,000 active;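 active = at least 3 SD above the mean of all compounds, about 16000 in these data; inconclusive = too few beads counted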;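 also: 100 nL of 1 mM stock went into each well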
ugtP null kill – growth inhibition of ugtP-null S. aureus, primary screen, RN4220 ugtP deletion, OD600 | 16 h; some inactives read as strong as hits | growth inhibition, % (no concentration beside the values) | 0.54% of 330,000 active | AID 1259309, 2017;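 active = z-score under -3 and OD600 up to 0.15 on both plates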;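 also: plate controls were untreated wells for no effect and antibiotic for full effect; wells of about 80 µL received 100 nL stock; the first replicate is given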
Mtb hypoxia inh – PubChem AID 1159583. M. tuberculosis hypoxia-regulated fluorescent reporter, fluorescence. fluorescence inhibition, % (test concentration not listed). 0.1% of 300,000 active;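 active = 35 to 45% if threefold the growth effect, above 45% if 1.5-fold the growth effect; inactive = the rest, general growth blockers included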;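 also: wells of about 50 µL received 100 nL stock; 0% = vehicle wells and 100% = reference inhibitor wells; whole bacteria with a GFP reporter of the hypoxia response; strong numbers were not always called active; many hits fall short of the cut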
BJeLR lethal – MLPCN primary cell-based screen for lethality selective to Ras in HRASV12 cells. inhibition, % (test concentration not listed). AID 1554, 2009. BJeLR (HRASV12) viability, CellTiter-Glo ATP luminescence, 48 h; reference of the scale not given here. 0.17% of 300,000 active;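 active = replicate mean above 50%; inconclusive = above 50% but judged a plate artefact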;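 also: 50 nL library stock added to about 25 µL; numbers are from one replicate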
Sa RN4220 lethal – growth inhibition of S. aureus RN4220, primary screen, OD600; 16 h; inhibition, % (concentration not given with the values); 0.33% of 330,000 active; AID 1259311, 2017;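 active = z-score of -3 or lower and OD600 up to 0.18 on both plates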;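 also: plate controls were untreated cells for no effect and reference antibiotic for full effect; stock transfer was 100 nL into about 80 µL; one replicate is shown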
PrP UTR inh – inhibition of PrP 5' UTR reporter expression | 0.35% of 340,000 active | cell-based PrP 5' UTR mRNA reporter, plate reader | inhibition, % (test concentration not listed);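 active = every replicate at 50% or more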;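 also: 0 = median of the neutral control wells; tested in H4 reporter cells; numbers are from one replicate; inactives centre near -14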
Mtb hypoxia inh growth – also measured in Mtb hypoxia inh; calls as there; growth inhibition, %; measured here: M. tuberculosis growth (absorbance);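 0% = vehicle and 100% = reference antibiotic; read after six days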
The depositor's hits bear a star; ? = inconclusive; . = no result given; & = joins results of further samples.

SMILES	Autofluor counter	ugtP null kill	Mtb hypoxia inh	Mtb hypoxia inh growth	BJeLR lethal	Sa RN4220 lethal	PrP UTR inh
CCN(C(=O)COC(=O)c1ccc(C)c(S(=O)(=O)N2CCCCC2)c1)C1CCS(=O)(=O)C1 (stereo unspecified)	5672	5	-6	-4	5	0.8	-8
Cc1sc2nc(SCC(=O)N(CCO)CCO)nc(N)c2c1C	4070	5	10	1	-5	3.8	-37
COc1cc2c(cc1OC)CN(C1CCCN(Cc3cc(Cl)ccc3O)C1)CC2 (stereo unspecified)	3316	4	-5	-8	11	-1.9	-23
Cc1ccccc1Sc1c(C#N)c(-c2ccccc2)nn1C	11305	18	6	6	11	-3.4	-13
Cc1sc2nc(SCC(=O)N(C)Cc3ccccc3)n(-c3ccccc3)c(=O)c2c1C	4396	-13	.	.	-7	3.1	-19
CCOc1ccc2nc(N3C(=O)/C(=C/c4ccc(Cl)cc4)NC3=S)sc2c1	2534	.	.	.	4	.	-23
N#CCn1c(Cc2ccccc2)nc2ccccc2c1=O	3748	0	5	5	-4	4.9	-36
Cc1ccc(C(C(=O)NC(C)(C)C)N(Cc2cccnc2)C(=O)C(=O)NC2CCCCC2)o1 (stereo unspecified)	3299	-4	-4	-4	5	1.7	-23
COc1ccc(C(=O)Nc2ccc3[nH]ccc3c2)cc1OC	4292	-3	12	-2	8	1.5	-49
Cc1nn(CC(=O)NCc2ccccc2)c(C)c1[N+](=O)[O-]	2905	1	4	9	0	6.1	-17
C=CCOc1cccc(C2C(C(=O)c3cc4ccccc4o3)=C(O)C(=O)N2c2cc(C)on2)c1 (stereo unspecified)	5283	100*	-8	-4	-10	100*	-19
Cc1ccc(C=NNC(=O)CN(Cc2ccccc2)S(=O)(=O)c2ccc3c(c2)OCCO3)cc1	.	-12	-2	2	.	-0.1	.
O=C(NCCCNCc1ccccc1)c1ccc(/C=N/O)nc1	9173	.	.	.	-4	.	-34
COc1ccc(C2(c3ccc(OC)cc3)NC(=O)N(CC(=O)N3CCOCC3)C2=O)cc1	3483	4	5	2	.	1.2	-26
CCCN(CCC)Cc1c(C(=O)N/N=C/CCc2ccccc2)nnn1-c1nonc1N	5538	.	.	.	-8	.	-29
COc1ccc(-c2ccc3c(c2)S(=O)(=O)c2cccc(C(=O)NCc4cc(C)oc4C(F)(F)F)c2C3=O)cc1OC	3667	3	14	9	.	-4.3	-3
Cc1ccc(C(C)C)c(OCC(=O)Nc2ccccc2N2CCN(C)CC2)c1	2838	-5	.	.	7	3.4	-10
COc1ccc(NS(=O)(=O)c2ccc(C)c(C(=O)NNC(=O)c3csc(N4CCOCC4)n3)c2)cc1	?	4	5	0	0	4.1	-19
Cc1occc1C(=O)Nc1ccc2c(c1)OCCO2	20875*	1	0	11	16	2.8	-42
O=C(CN(Cc1ccco1)C(=O)c1nsc(Cl)c1Cl)NC1CCCCC1	3449	0	4	11	4	5.5	38
CCN(CC)C(=O)c1sc(NC(=O)Cc2ccccc2)c(C#N)c1C	3328	-5	6	8	-10	-0.4	-14
COc1ccc(NC(=O)CCCn2c(=O)c3sccc3n(Cc3cccc(C)c3)c2=O)cc1	8161	4	-3	-1	2	2.4	-10
CCOc1cc(C=NOC(C)=O)ccc1OCc1ccccc1	.	7	15	-9	.	1.1	.
CC(C)COC(=O)C1C(=O)CC(C)(O)C(C(=O)OCC(C)C)C1c1cccnc1 (stereo unspecified)	4908	10	7	3	3	1.7	-19&-11
O=C(C(=O)N1CCc2ccccc2C1)c1cn(CC(=O)N2CCOCC2)c2ccccc12	9079	14	1	5	7	4.9	-25

Compound profiles, as listed above:
CCCN(CCC)Cc1c(C(=O)N/N=C/CCc2ccccc2)nnn1-c1nonc1N is listed as Autofluor counter: 5538; ugtP null kill: .; Mtb hypoxia inh: .; Mtb hypoxia inh growth: .; BJeLR lethal: -8; Sa RN4220 lethal: .; PrP UTR inh: -29
O=C(CN(Cc1ccco1)C(=O)c1nsc(Cl)c1Cl)NC1CCCCC1 is listed as Autofluor counter: 3449; ugtP null kill: 0; Mtb hypoxia inh: 4; Mtb hypoxia inh growth: 11; BJeLR lethal: 4; Sa RN4220 lethal: 5.5; PrP UTR inh: 38

The listing continues.
SMILES	Autofluor counter	ugtP null kill	Mtb hypoxia inh	Mtb hypoxia inh growth	BJeLR lethal	Sa RN4220 lethal	PrP UTR inh
CC1CN(C(C)CO)C(=O)c2cc(NC(=O)Nc3ccc(C(F)(F)F)cc3)ccc2OC1CN(C)S(C)(=O)=O (stereo unspecified)	.	-3	7	9	.	1.2	.
CCc1nc(N)c(C#N)c(-c2cccc3ccccc23)c1C	4105	5	12	10	13	3.7	-20
COc1ccccc1NC(=O)NC(=O)c1ccccc1	3738	12	-1	3	-6	5.2	-70
COCCCn1c(SCC(=O)N2CCOCC2)nnc1-c1ccco1	5888	0	-1	1	3	0.4	-38
Cn1cccc1-c1cc(C(=O)NN=Cc2ccc(Cl)cc2)[nH]n1	.	-6	13	-5	.	3.3	.
COc1cccc(/C=N/NC(=O)C(=O)NCc2ccco2)c1O	9941	.	.	.	0	.	8
CNC(=O)C12CC3CC(CC(Cl)(C3)C1)C2	2547	0	10	6	-2	4.9	-11
CC(Sc1cccc[n+]1[O-])C(=O)Nc1ccc([N+](=O)[O-])cc1Cl (stereo unspecified)	6024	8	10	10	-5	6.4	-17
COc1cc(OC)c(NC(=O)CCNS(=O)(=O)c2cc(Br)cnc2N)cc1Cl	2712	-11	.	.	8	-2.7	-10
O=C(CNS(=O)(=O)c1cccs1)N1CCCCC1	5995	4	1	-5	-14	3.7	-21
O=C1N=C(N2CCN(c3ccccc3)CC2)S/C1=C/c1cccs1	2428	1	1	13	-8	0.5	-5
O=C(NCCOc1ccccc1)C(c1ccccc1)c1ccccc1	2772	10	0	-2	4	-0.1	-52
Cn1c(=S)[nH]c(=O)c2ncc(=O)[nH]c21	2923	-1	3	16	-3	-2.8	-6
CCOc1ccc(CN=C(N)N=C(N)N)cc1Cl	4614	4	.	.	5	0.6	-16
OCCOCCOc1cccc2[nH]ccc12	4676	0	15	-3	1	4.4	-19
O=C(CSc1ncccn1)NN=C1CCCCCC1	2153	2	2	-11	3	1.8	-10
O=C(NCCCN1CCOCC1)C(=O)NN=Cc1cccc2ccccc12	.	6	14	12	.	4.0	.
CC(Oc1cc(Cl)ccc1Cl)C(=O)N/N=C\c1ccnn1C (stereo unspecified)	2364	.	.	.	14	.	-11
CC(C)N1CC(O)=C(c2ccccc2)C1=N	12610	-4	-5	6	4	-3.1	14
CCOC(=O)C1=C(c2ccccc2)NC(SC)=C(C#N)C1c1ccco1 (stereo unspecified)	15251	-4	6	0	4	3.7	0
O=C(Cn1nc(-c2ccc(Cl)cc2)ccc1=O)NCCCN1CCN(Cc2ccccc2)CC1	10616	3	-1	2	6	0.1	-21
O=C(Nc1ccc2c(c1)OCO2)c1ccc(=O)[nH]n1	3849	7	8	2	3	4.5	-24
COc1ccc(CCNC(=O)C2CCN(C(=O)c3ccc(C(C)(C)C)cc3)CC2)cc1OC	3433	12	-1	2	7	3.8	-17
Cc1ccc(N(CC(=O)NCC2CCCO2)C(=O)CNS(=O)(=O)c2ccc(Cl)cc2)cc1 (stereo unspecified)	3959	0	14	2	3	2.5	-6
NCCc1nnc(SCc2c(Cl)cccc2Cl)o1	4125	17	10	16	4	2.5	-14
(cont.)
SMILES	Autofluor counter	ugtP null kill	Mtb hypoxia inh	Mtb hypoxia inh growth	BJeLR lethal	Sa RN4220 lethal	PrP UTR inh
Cc1ccc(NS(=O)(=O)c2c(C)nc3sccn3c2=O)cc1C	6128	15	9	0	-1	3.8	-11
CCOc1ccc(CCNC(=O)CCc2nnc3ccc(N4CCCC4)nn23)cc1OCC	6139	-5	.	.	0	2.3	14
C=CCn1c(O)c(C(C)=O)c(=O)[nH]c1=O (tested in a mixture with another compound)	6572	2	14	-3	3	4.3	-26
Cc1ccccc1-c1c(C)oc2cc(O)ccc2c1=O	7257	10	4	6	-1	2.1	-16
Cc1n(Cc2ccccc2)c2cc([N+](=O)[O-])ccc2[n+]1Cc1ccccc1	3587	2	8	16	-8	-0.3	-15
CC1=NN(Cc2c[nH]c3ccccc23)C(C)(C)C1	2744	1	6	-6	9	2.1	-9
Cc1ccc(OCC(=O)N2CCCC(CCC(=O)N(C)CCc3ccccn3)C2)cc1 (stereo unspecified)	2294	11	1	0	1	-0.3	-18
Cc1ccc(NC(=O)CC2S/C(=N/c3nccs3)N(C)C2=O)cc1C (stereo unspecified)	3540	.	.	.	6	.	-6
O=C(O)c1nc(N2CCOCC2)nc(N2CCOCC2)n1	5866	2	2	4	-5	4.8	-21
CN(CC(=O)Nc1cccc(F)c1)C(=O)c1cc([N+](=O)[O-])ccc1N1CCCCC1	6420	-4	-3	6	-9	-0.1	-7
Cc1ccc(C)c(NC(=O)CNS(=O)(=O)c2ccccc2)c1	16924*	1	3	7	0	4.7	9
COc1ccc(Cc2nc3ccc(C(=O)N(C)Cc4cc(C)[nH]n4)cc3o2)cc1OC	6148	6	-4	7	14	2.6	-18
CC(Cc1nnc(N)s1)c1ccccc1 (stereo unspecified)	3650	4	10	-1	-1	1.1	-18
COc1ccc(N2C(=O)c3cc4ccccc4cc3C2=O)cc1	3723	-4	11	5	2	-1.6	-12
O=C(Nc1ccnn1C1CCN(C(=O)c2ccc(F)cc2)CC1)C1CCOC1 (stereo unspecified)	5232	-2	5	0	-2	3.3	-12
COc1ccc(OC)c(/C=N\NC(=O)c2cc3c(ccc4ccccc43)o2)c1	5599	.	.	.	-10	.	0
Cc1nc2ccccc2n1S(=O)(=O)c1ccc(Br)cc1	2507	-5	1	8	1	2.7	-14
CN(C)S(=O)(=O)c1ccc(C(=O)OCCc2ccccc2)cc1	3760	6	6	12	-2	3.6	-14
c1ccc2n[nH]nc2c1	4102	5	5	11	.	4.1	-12
COc1ccccc1/C=C1\SC(=S)N(Nc2nc(C)cc(C)n2)C1=O	24819*	-4	16	31	-11	0.3	-20
Cc1c(Cl)cccc1NC(=O)CCS(=O)(=O)c1cccc2nonc12	3985	8	11	-2	3	2.9	-25
CCOC(=O)c1c[nH]n(-c2ccccc2)c1=O	4472	7	14	2	0	9.0	-14
O=C1CCC(=O)N1CNc1ccccn1	3428	1	.	.	-2	2.8	0
Cn1c(-c2ccsc2)c(-c2cccs2)c2cc(-c3cccc4[nH]ccc34)ccc21	3895	4	20	4	.	-1.4	1
CCN(C(=O)COC(=O)Cc1c[nH]c2ccccc12)C1CCS(=O)(=O)C1 (stereo unspecified)	5920	0	1	4	3	1.4	2
Following part
SMILES	Autofluor counter	ugtP null kill	Mtb hypoxia inh	Mtb hypoxia inh growth	BJeLR lethal	Sa RN4220 lethal	PrP UTR inh
COc1ccccc1N1CCN(CC(=O)N(CC(C)C)c2c(N)n(CC(C)C)c(=O)[nH]c2=O)CC1	3794	2	9	8	-5	8.9	-16
CCCCn1nc(NC(=O)CCC)c2cc3cc(OC)ccc3nc21	3511	-1	11	5	8	-1.8	-1
CC(C)=CCN1CCN(Cc2ccc(C#CC(C)(C)O)s2)CC1CCO (stereo unspecified)	2493	5	3	-3	-8	1.4	-4
Cn1cc(CN2CCC(CO)(CCCc3ccccc3)CC2)c(-c2ccccc2)n1	3327	5	15	8	-9	1.6	0
Cc1ccc(NS(=O)(=O)c2cccc(C(=O)NCC(c3ccco3)N3CCCC3)c2)cc1 (stereo unspecified)	3136	-1	2	2	.	2.6	-4
CCN(CC)c1ccc(C=NNc2nc3ccccc3[nH]2)cc1	.	99*	7	5	.	97*	.
O=C(/C=C/c1ccc([N+](=O)[O-])cc1)OCC(=O)N1CCCC1	3193	11	3	2	.	4.8	-15
CC(C(=O)O)n1c2ccccc2c2cnn(C)c(=O)c21 (stereo unspecified)	3527	-3	-9	6	1	-2.4	6
CCOC(=O)C1CCN(C(c2cc(OC)c(OC)c(OC)c2)c2sc3nc(C)nn3c2O)CC1 (stereo unspecified)	5404	-8	3	2	-6	-12	6
CC1(C)NC(=O)N(CCOCCOc2c(Cl)cc(Cl)cc2Cl)C1=O	7728	1	0	0	2	1.4	-10

Arranged by length of the SMILES (smallest number first): some entries from above
SMILES	Autofluor counter	ugtP null kill	Mtb hypoxia inh	Mtb hypoxia inh growth	BJeLR lethal	Sa RN4220 lethal	PrP UTR inh
CCN(CC)c1ccc(C=NNc2nc3ccccc3[nH]2)cc1	.	99*	7	5	.	97*	.
CCCCn1nc(NC(=O)CCC)c2cc3cc(OC)ccc3nc21	3511	-1	11	5	8	-1.8	-1
O=C(/C=C/c1ccc([N+](=O)[O-])cc1)OCC(=O)N1CCCC1	3193	11	3	2	.	4.8	-15
Cn1cc(CN2CCC(CO)(CCCc3ccccc3)CC2)c(-c2ccccc2)n1	3327	5	15	8	-9	1.6	0

High-throughput results as filed in PubChem.
